Compound activity as filed in PubChem.
Menin MLL FP FL – menin-MLL binding inhibition, fluorescein peptide; AID 1766; Fluorescence polarization, fluorescein-MLL peptide displacement from menin; FP activity change, % at 61.4 µM; 290,000 tested, under 10 active; inconclusive = falling polarisation curve, or a change in total fluorescence; inactive = total fluorescence flat and polarisation flat or rising; no compound was filed as active; the % refers to the polarisation; negative = inhibition;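 note: % of control where 0% means no effect; inhibitors lower the polarisation; unlabelled MLL peptide was the positive control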
Sfp PPTase inh – Sfp phosphopantetheinyl transferase inhibition | Q9F4F7 | AID 1490 | hit rate 3.5% among 310,000 | Biochemical Sfp PPTase activity, qHTS | Potency, µM, for inactives: max response, negative = inhibition, usual class: inhibitors; active = well fitted inhibition curve with a large enough effect; inconclusive = small, poorly fitted or top-dose-only effect, or another doubt; inactive = no such curve, though single readings can be large or run the other way;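 note: the enzyme is Sfp with the accession as filed and its product quenches rhodamine fluorescence; potency is the fitted concentration of half-maximal effect; 0% = enzyme reaction without inhibitor and -100% = no enzyme wells; top concentration of the series not given in the record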
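With Hepes-Na pH 7.6 buffer containing 10 mM MgCl2, Sfp (15 nM) modified BHQ-2-YbbR (12.5 uM) using rhodamine-CoA (5 uM). Two reads 30 minutes apart at 525/598 nm yielded each well's rate.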
TRPV1 PAM – enhances activation of the human vanilloid receptor TRPV1; Q8NER1; potentiation, % at 8.33 µM; TRPV1-expressing cells, Fluo-8 calcium influx, capsaicin EC20 potentiation; host cell line not named in the record; control for the full effect not named in the record; hit rate 0.02% among 320,000; active means potentiation above 80%; inconclusive means 30% to 80%; inactive means below 30%; note: 0% is about no effect
Target sequence (Q8NER1 whole entry, looked up): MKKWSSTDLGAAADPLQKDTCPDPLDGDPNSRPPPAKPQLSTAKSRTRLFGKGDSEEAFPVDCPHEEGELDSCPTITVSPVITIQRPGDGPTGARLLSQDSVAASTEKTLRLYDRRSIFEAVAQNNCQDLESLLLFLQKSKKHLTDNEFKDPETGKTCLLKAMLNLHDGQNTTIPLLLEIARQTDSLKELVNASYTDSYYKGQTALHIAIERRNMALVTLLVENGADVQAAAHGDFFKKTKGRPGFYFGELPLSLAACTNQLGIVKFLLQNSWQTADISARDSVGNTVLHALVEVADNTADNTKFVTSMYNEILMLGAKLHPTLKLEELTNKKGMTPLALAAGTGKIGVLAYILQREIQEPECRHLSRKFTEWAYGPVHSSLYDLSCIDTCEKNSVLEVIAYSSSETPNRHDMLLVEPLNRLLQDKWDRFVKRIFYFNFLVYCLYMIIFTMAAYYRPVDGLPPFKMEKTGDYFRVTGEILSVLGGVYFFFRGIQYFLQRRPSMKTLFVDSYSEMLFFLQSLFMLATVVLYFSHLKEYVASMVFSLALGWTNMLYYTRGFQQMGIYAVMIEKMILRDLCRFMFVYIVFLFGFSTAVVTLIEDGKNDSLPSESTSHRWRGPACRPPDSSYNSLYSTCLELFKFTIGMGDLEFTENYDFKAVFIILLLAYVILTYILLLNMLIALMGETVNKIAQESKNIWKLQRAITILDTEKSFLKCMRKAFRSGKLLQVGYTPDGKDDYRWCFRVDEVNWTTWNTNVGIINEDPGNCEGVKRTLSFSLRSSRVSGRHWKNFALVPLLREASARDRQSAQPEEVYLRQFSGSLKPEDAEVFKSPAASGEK
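Fluo-8 calcium influx in TRPV1-expressing cells, kinetic read (ex 480/em 520 nm). Compound added and read 3 min for agonist activity, followed by capsaicin at EC20 final and 2 min further read for enhancement.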
TRPML1 blocker – blocks the human TRPML1 channel; Q9GZU1; TRPML1-inducible cells, Ca2+ dye fluorescence, FDSS; active compounds read low; inhibition of EC80 agonist-evoked calcium signal; activity change, negative = inhibition, % (test concentration not listed); hit rate 0.02% among 390,000; AID 624415; in the data active means activity change below about -50%; inconclusive means about -30% to -50%; inactive means above about -30%;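 note: stimulus is agonist 54-4 at its EC80 concentration; % is set by controls: 0 for no effect and ±100 for the full control effect; compound concentration not given in the record; the text of the record puts the active cut at -80%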
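Calcium fluorescence in TRPML1-DL cells induced overnight with Tet: a 110 s read after compound pin addition, then a 110 s antagonist read after challenge with 54-4 at 4 uM final (EC80).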
ClpP mod – qHTS Assay for Activators of ClpP; ATP-dependent Clp protease proteolytic subunit (Bacillus subtilis (strain 168)), P80244; purified B. subtilis ClpP, FRET peptide cleavage, 20 min; Potency, µM (highest dose often 57.5 µM), for inactives: at the highest dose activity change, negative = active; hit rate 1.9% among 340,000; active = well fitted falling curve with a large enough effect; inconclusive = small, poorly fitted or top-dose-only effect; inactive = no such curve, though single readings can be large or run the other way; note: potency is the fitted concentration of half-maximal effect; the source files actives as falling curves though it sought activators and does not explain the sign; nearly all actives have a fitted effect of over 65% in size; many hits overshoot -100%
Target sequence (P80244 whole entry, looked up): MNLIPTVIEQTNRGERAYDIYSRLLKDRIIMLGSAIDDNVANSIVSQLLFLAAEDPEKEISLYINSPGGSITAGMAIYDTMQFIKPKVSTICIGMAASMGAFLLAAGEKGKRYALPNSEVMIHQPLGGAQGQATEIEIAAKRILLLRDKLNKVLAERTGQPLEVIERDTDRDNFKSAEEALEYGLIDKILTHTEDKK
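FRET quenching reversal measured ClpP activation: 10 microg/mL B. subtilis ClpP at pH 8 with the FRET-FV decapeptide, read at 430 nm after 320 nm excitation. The 20-min minus 0-min signal was scaled between DMSO/no-enzyme wells and ADEP (5.8 microM final).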
gsp antagonist – gsp mutant antagonism; gsp-mutant cells, cAMP HTRF, 30 min; control for the full effect not named in the record; Potency, µM (doses to about 76.9 µM), for inactives: at the highest dose activity change, negative = inhibition, actives largely listed as inhibitors; hit rate 0.4% among 340,000; active = falling curve of any shape with a large fitted effect; inconclusive = falling curve, mostly with a smaller effect; inactive = flat or rising curve; cell line not stated here;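 note: intracellular cAMP measured with PDE inhibitor Ro 20-1724 present during compound exposure; potency is the fitted concentration of half-maximal effect; % is set by controls: 0 for no effect and ±100 for the full control effect; nearly all actives have a fitted effect of over 65% in size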
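G418-selected cells were plated in DMEM/10% FBS for 16-24 h at 37C, then treated with compounds plus the PDE inhibitor […] (300 uM solution added) for 30 min at 37C. Intracellular cAMP was measured by HTRF after 30 min lysis at room temperature.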
gsp agonist – agonists of gsp mutant (McCune-Albright syndrome); gsp mutant cells, cAMP HTRF, 30 min; control for the full effect not named in the record; Potency, µM (highest dose often 76.9 µM), inactives show at the highest dose activation (cAMP increase), hits mostly activators; hit rate 0.13% among 340,000; active = well fitted activation curve with a large enough effect; inconclusive = small, poorly fitted or top-dose-only effect, or another doubt; inactive = no such curve, though single readings can be large or run the other way; cell line not stated here;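 note: phosphodiesterase inhibitor Ro 20-1724 added with compounds to block cAMP breakdown; potency is the fitted concentration of half-maximal effect; nearly all actives have a fitted effect of over 60% in size; about a fifth of the inactives were tested at one dose only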
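Cells stably selected in G418 were plated at 2000/well, grown 16-24 hr, then given compounds in DMSO with the PDE inhibitor […] (300 uM solution added) for 30 min at 37C; cAMP was read by HTRF.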
Starred values were filed as active, the others as inactive; ? = inconclusive; . = not tested or not shown; & = joins results of further samples; [ ] = dose if it differs, or a comment.

SMILES	Menin MLL FP FL	Sfp PPTase inh	TRPV1 PAM	TRPML1 blocker	ClpP mod	gsp antagonist	gsp agonist
Cc1nc(-c2ccccc2)c(Cc2ccccc2O)c(=O)[nH]1	4.1	18%	17	-7	0.4%	-12%	-1%
Nc1ccccc1/C=N\N=C/c1ccccc1N	.	.	.	-10	.	2%	?
CSc1ccc(CN2CCN(C(=O)c3ccc([N+](=O)[O-])cc3)CC2)cc1	2.1	-19%	-2	-5	.	2%	?
CC(C)NC(=O)CSCc1ccccc1Cl	1.6	11%	6	-19	-1.6%	-2%	?
COC(=O)C(Cc1ccccc1)NC(=O)CNC(=O)c1sc2ccccc2c1Cl (centres undefined)	1.8	2%	1	6	.	-6%	22%
CCN(CCCNC(=O)c1[nH]c(C)c(C(C)=O)c1C)c1ccccc1	0.6	11%	-12	11	0.3%	-35%	-14%
CCCCNC(=O)Cn1nc(-c2ccc(C)cc2)ccc1=O	0.2	8%	1	.	4.1%	2%	-21%
COc1ccc(C(C)C)cc1S(=O)(=O)N1CCN(c2ccccc2)CC1	-2.8	5%	15	14	0.6%	-4%	3%
CN(C(=O)CCc1nnc(Cc2ccc(-c3ccccc3)cc2)o1)C1CCOCC1	1.0	19%	3	1	.	-9%	-9%[15.4 µM]
CC(C)CC(=O)N1CCC(O)(CS(=O)(=O)c2ccc(Cl)c(Cl)c2)CC1	-2.2	9%	9	-19	.	-47%	22%[15.4 µM]
Cc1cccc(OCc2ccc(C(=O)Nc3cc(C)on3)o2)c1	-5.2	2%	20	-9	.	2%	1%[15.4 µM]
O=c1[nH]cc(S(=O)(=O)N2CCN(c3ccccc3F)CC2)c(=O)[nH]1	.	.	.	-5	-1.4%	.	-53%[inhibitor]
NC(Cc1ccc2nonc2c1)C(=O)O (centres undefined)	7.9	?	15	-26	-0.2%	1%	0%
COc1cc(NC(=O)c2cccnc2Sc2ccc(C)c(C)c2)cc(OC)c1OC	-1.7	14%	6	-16	20%	-2%	19%
CCC1C/C(=C/c2ccco2)C(=O)/C(=C/c2ccco2)C1 (centres undefined)	?	32µM*	-12	.	.	.	.
O=C(CSc1ccc(-c2ccccn2)nn1)Nc1ccc(F)c(F)c1	.	20%	-4	-5&24	0.3%&0.1%	-5%	4%[15.4 µM]
Cc1nc2ccccn2c1C(=O)N/N=C/c1ccccc1[N+](=O)[O-]	1.2	14%	-7	2	-3.2%	6%	0%
Cc1cc(C(=O)NCC(=O)Nc2ccc(F)c(F)c2)c(C)o1	.	.	.	-1	0.7%	5%	23%[15.4 µM]
C[C@@H]1CN([C@H](C)CO)C(=O)CCCn2nncc2CO[C@H]1CN(C)C(=O)C1CC1	.	.	.	1	0.8%	.	?
O=C(NCCNC(=O)c1ccccc1O)c1ccccc1O	-1.9	13%	-7	-9	-1.6%	-7%	-21%
COc1ccc(-c2oc3cc(O)c(OC)c(O)c3c(=O)c2OC)cc1O	.	.	.	42	-1.4%	2%	-3%
Cc1ccnc(NC2CCCCC2)c1	-1.8	10%	12	-3	3.5%	12%	1%
CCN1CCN(c2c(S(=O)(=O)c3ccc(C)c(C)c3)cnc3ccc(F)cc23)CC1	-0.5	6%	-8	50&48	-2.0%&-4.8%	4%	?
CCOC(=O)C1CCN(Cc2ccccc2C)CC1	3.3	13%	9	10	0.6%	0%	-44%[inhibitor]
Fc1ccc(Cn2ccc(-c3cnc(-c4ccccc4)s3)n2)cc1	-1.3	-16%	-5	31	-7.6%	-9%	5%

The results go on.
SMILES	Menin MLL FP FL	Sfp PPTase inh	TRPV1 PAM	TRPML1 blocker	ClpP mod	gsp antagonist	gsp agonist
Cc1ccc(CN2CCN(Cc3c(C)nn(C(C)C)c3C)CC2CCO)o1 (centres undefined)	-0.3	12%	25	-14	-0.1%	6%	16%
O=C(OCc1ccccc1)N1CCC2CC1c1cc(N3CCN(S(=O)(=O)c4cc(Cl)cc(Cl)c4)CC3)ccc12 (centres undefined)	.	.	.	-3	-0.5%	.	-22%
O=C(O)/C(=C\c1ccc(Cl)c([N+](=O)[O-])c1)c1ccc(S(=O)(=O)N2CCCC2)s1	.	.	-15	5	-0.8%	-13%	25%
O=C(Cn1c2[n+](c3ccc(C(F)(F)F)cc31)CCCCC2)Nc1c(F)cccc1F	0.0	25%	27	1	.	-2%	-12%[15.4 µM]
O=C(Nc1nnc(S(=O)(=O)N2CCCC2)s1)c1ccccc1F	-0.2	15%	26	-7&7	-0.6%&0.3%	-14%	26%
Cn1cc(CN2CCCC(CNC(=O)c3ccc4c(c3)OCO4)C2)c2ccccc21 (centres undefined)	0.1	-13%	5	18	.	4%	-30%
O=C(Nc1ccc(F)c(Cl)c1)c1cc(-c2ccco2)on1	.	10%	4	-11	.	3%	-1%[15.4 µM]
CCn1c(SCC(=O)O)nnc1-c1ccc2[nH]c(C)c(C)c2c1	-0.8	2%	6	18	-3.0%	3%	1%[15.4 µM]
Cc1cccc(OC(C)C(=O)Nc2ccc(S(=O)(=O)N3CCCC3)cc2)c1 (centres undefined)	.	5%	-9	85	-0.3%	0%	17%
COc1cccc(NC(=O)CN(C)C(=O)c2c(-c3ccccc3)noc2C)c1	.	16%	1	-20	-9.0%	-4%	-17%
Cc1ccc2c(c1)N(CC(=O)N1CCN(c3nc4ccccc4s3)CC1)C(=O)C(C)O2 (centres undefined)	5.8	-1%	-10	-4	-0.6%	?	4%
COc1cccc2cc3c(=O)oc4ccccc4c3nc12	5.0	19%	11	-6	-26%	-8%	25%
COc1ccc(C2CC(=O)c3sc(NC(C)=O)nc3C2)cc1 (centres undefined)	0.6	-18%	-1	7	-4.8%	-3%	?
CC(C)C(NC(=O)c1ccc(C(C)(C)C)cc1)C(=O)Nc1ccc(N2CCOCC2)cc1 (centres undefined)	.	.	8	-1	-0.9%	13%	-2%
CC(C)NC(=O)NC(=O)CN1c2cccc3cccc(c23)S1(=O)=O	4.3	-8%	6	-10	-28%	0%	-9%
CCCCCCCc1n[nH]c(=S)n1Cc1ccccc1	1.0	-9%	6	-22	-0.2%	-9%	1%[15.4 µM]
O=C(NNC(=O)c1ccncc1)Nc1cccc([N+](=O)[O-])c1	-1.4	12%	8	-16	2.0%	8%	-9%
COc1ccc(C(=O)/C=C2\NCCc3cc(OC)c(OC)cc32)cc1OC	-2.7	-8%	1	5	3.9%	17%	?
O=c1c2ccccc2nc2n1CCS2(=O)=O	0.8	0%	-15	25	.	8%	34%
CC(=O)c1ccc(NC(=O)c2cc3ccccc3o2)cc1	0.9	3%	-14	9	0.6%	4%	10%
CC(C)NC(=O)c1ccc2c(=O)n(C3CCCC3)c(=S)[nH]c2c1	-6.2	-3%	6	-7	0.0%	-1%	-52%[inhibitor]
CC(=O)c1cc2c(cc1NC(=O)CN1CCCCCC1)OCO2	0.1	-22%	-8	-4	-8.8%	-20%	-30%
COc1cccc(NC(=O)N2CCN(S(C)(=O)=O)CC2)c1	-1.7	1%	-2	9	.	4%	-6%[15.4 µM]
CCCOC(=O)Nc1ccc(C(N)=O)cc1	2.9	12%	-18	8	-0.7%	5%	2%
CC(=O)c1ccc(NC(=O)CSc2ccsc2[N+](=O)[O-])cc1	0.1	-10%	0	-13	-1.3%	-4%	20%

(further entries)
SMILES	Menin MLL FP FL	Sfp PPTase inh	TRPV1 PAM	TRPML1 blocker	ClpP mod	gsp antagonist	gsp agonist
CCc1ccc(CNCc2ccc(F)cc2)cc1	-2.1	18%	-6	4	-0.3%	-8%	10%
CCOc1ccc(NC(=O)CN2CCN(CC(=O)Nc3ccc4c(c3)OCO4)CC2)cc1	-2.2	2%	0	-1	1.3%	9%	2%
COc1cc2nc(C3CCC3)n(NC(=O)c3ccco3)c(=O)c2cc1OC	0.5	-4%	-9	3	0.1%	-9%	0%
CCc1nc2cc(Cl)c(Cl)cc2[nH]1	1.3	?	-3	-12	0.5%	2%	?
O=C(CSc1nnnn1-c1cccc(F)c1)NC1CC1	.	.	.	12	-1.8%	7%	-2%[15.4 µM]
O=C(c1ccc(Cl)cc1)[C@@H]1[C@@H]2C(=O)N(c3cccc4ccccc34)C(=O)[C@@H]2C2c3ccccc3C=NN21 (some centres undefined)	18	-11%	15	3	-4.7%	3%	22%
O=C(CCl)N1c2ccccc2Sc2c1ccc1ccccc21	.	.	.	9	-1.2%	-21%	-133%[inhibitor]
COc1cccc(CNC(=O)CCS(=O)(=O)c2ccc3c(c2)NC(=O)CS3)c1	.	27%	14	-1	-1.7%	15%	-5%
Cc1nn(CC(=O)NC(C)C)c(C)c1[N+](=O)[O-]	-2.3	17%	2	1	.	6%	-22%[15.4 µM]
O=C1c2[nH]nc(-c3ccccc3O)c2C(c2ccccc2)N1Cc1ccco1 (centres undefined)	1.5	-13%	5	16	-4.2%	?	-31%[inhibitor]
O=C(C1CCCN(S(=O)(=O)c2ccccc2)C1)N1CCCc2ccccc21 (centres undefined)	-0.7	-11%	-17	38	-0.8%	?	1%
Cc1ccc(NC(=O)Cn2nnc(-c3ccc4c(c3)OCO4)n2)cc1F	-5.7	10%	0	2	.	5%	-5%[15.4 µM]
O=C(CC(=O)c1ccccc1)CS(=O)(=O)c1ccccc1	.	.	.	-3	.	-3%	0%
CCC(Cc1ccccc1)NC(=O)c1ccc2nc(N3CCOCC3)sc2c1 (centres undefined)	4.3	0%	-8	-1	-2.4%	-11%	-48%[inhibitor]
O=C(CN(c1ccccn1)S(=O)(=O)c1ccc(F)cc1)Nc1ccc(F)cc1F	0.5	17%	1	16	3.9%	-2%	?
COc1ccc(OC)c(C2=C/C(=C/c3ccccn3)C(=O)O2)c1	0.6	6%	-14	6	.	9%	16%

Full records, quoted from the list. Order of screens: Menin MLL FP FL	Sfp PPTase inh	TRPV1 PAM	TRPML1 blocker	ClpP mod	gsp antagonist	gsp agonist
Results for `COc1ccc(OC)c(C2=C/C(=C/c3ccccn3)C(=O)O2)c1` : 0.6	6%	-14	6	.	9%	16%
Results for `CCc1nc2cc(Cl)c(Cl)cc2[nH]1` : 1.3	?	-3	-12	0.5%	2%	?
Results for `O=C(CC(=O)c1ccccc1)CS(=O)(=O)c1ccccc1` : .	.	.	-3	.	-3%	0%
